gsp agonist: activates gsp, the McCune-Albright syndrome mutation. gsp mutant cells, cAMP HTRF, 30 min; control for the full effect not named in the record. Potency, µM (series often up to 76.9 µM), without a hit: at the highest dose activation (cAMP increase), most hits filed as activators. hit rate 0.13% among 340,000; active = well fitted activation curve with a large enough effect; inconclusive = small, poorly fitted or top-dose-only effect, or another doubt; inactive = no such curve, though single readings can be large or run the other way; cell line not stated here;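 also: phosphodiesterase inhibitor Ro 20-1724 added with compounds to block cAMP breakdown; potency is read from the fitted curve at half-maximal effect; nearly all actives have a fitted effect of over 60% in size; about a fifth of the inactives were tested at one dose only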
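Cells stably selected in G418 were plated at 2000/well, grown 16-24 hr, then given compounds in DMSO with the PDE inhibitor […] (300 uM solution added) for 30 min at 37C; cAMP was read by HTRF.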
Six1-Eya2 blk: blocks human Six1 binding to Eya2; AID 651725; AlphaScreen GST-Six1/His-Eya2 binding, biochemical; hits give low values; control for the full effect not named in the record; hit rate 0.56% among 360,000; activity change, % (concentration not given with the values); Q15475+O00167; in the data active = activity change below about -65%; inconclusive = about -30% to -65%; inactive = above about -30%; also: % is scaled to controls: 0 for no effect and ±100 for the full control effect
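GST-Six1 + His-Eya2 (5X stock: 250/500 nM); Tris pH 8.0, 300 mM NaCl, 0.05% BSA, 0.02% Tween 20; GSH donor/Ni acceptor beads; 1 h 37 °C dark; AlphaScreen readout.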
D2 PAM: positive allosteric modulators of human D2 dopamine receptor | DiscoveRx D2 beta-arrestin cells, luminescence, 90 min; 100% = 57 uM dopamine signal | hit rate 0.23% among 360,000 | P14416 | AID 624464 | potentiation, % (test concentration not listed); active = potentiation of 50% or more; inconclusive = 30% to 50%; inactive = 30% or less;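 also: compound concentration not given in the record; tested on top of an EC20 dose of dopamine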
Target sequence (P14416 whole entry, looked up): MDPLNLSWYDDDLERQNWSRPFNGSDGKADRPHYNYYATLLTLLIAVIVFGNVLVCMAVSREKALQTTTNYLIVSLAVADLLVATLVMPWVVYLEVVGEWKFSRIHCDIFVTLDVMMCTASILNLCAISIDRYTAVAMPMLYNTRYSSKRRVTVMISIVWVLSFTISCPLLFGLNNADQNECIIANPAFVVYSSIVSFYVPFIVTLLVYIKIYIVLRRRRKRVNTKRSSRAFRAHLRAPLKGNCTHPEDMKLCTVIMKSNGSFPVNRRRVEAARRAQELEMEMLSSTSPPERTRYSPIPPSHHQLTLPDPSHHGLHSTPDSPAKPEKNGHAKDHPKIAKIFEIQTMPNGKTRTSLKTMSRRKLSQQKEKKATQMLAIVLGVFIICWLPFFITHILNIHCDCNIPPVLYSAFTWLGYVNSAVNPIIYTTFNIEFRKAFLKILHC
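D2 cells co-treated with compound plus 50 nM dopamine (EC20) for 90 min at 37 deg C to detect potentiation. Beta-arrestin recruitment was read as enzyme-fragment luminescence after 1 h at ambient temperature. Full response was set by 57 uM dopamine.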
D2 agonist: agonists of human D2 dopamine receptor (beta-arrestin); DiscoveRx PathHunter D2 beta-arrestin, luminescence, 90 min; 100% = 57 uM dopamine signal; activation, % (no concentration beside the values); hit rate 0.084% among 360,000; AID 624465; in the data active = activation above about 40%; inconclusive = about 15% to 40%; inactive = below about 15%; also: compound concentration not given in the record; the text of the record calls up to 30% inactive
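Agonist mode: compounds alone added to overnight-plated D2 PathHunter cells for 90 min at 37 C, with 57 uM final dopamine (EC100) defining full response. Beta-arrestin recruitment detected by chemiluminescent reagent, read after 1 h at ambient temperature.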
CtBP-E1A blk: inhibitors of CtBP/E1A interaction; AlphaScreen GST-E1A/His-CtBP binding, 1536-well; hits give low values; control for the full effect not named in the record; activity change, % (no concentration beside the values); hit rate 0.49% among 340,000; AID 651724; in the data active means activity change below about -65%; inconclusive means about -30% to -65%; inactive means above about -30%; also: % is scaled to controls: 0 for no effect and ±100 for the full control effect; compound concentration not given in the record
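AlphaScreen with 125 nM GST-E1A and 125 nM His-CtBP (5X stocks) in Tris pH 8.0, 300 mM NaCl, BSA, Tween 20, TCEP. Compounds preincubated 2 h at 37 deg C, then glutathione donor/nickel acceptor beads added for 1 h at 37 deg C in dark.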
gsp antagonist: antagonizes gsp, the McCune-Albright syndrome mutation | gsp-mutant cells, cAMP HTRF, 30 min; control for the full effect not named in the record | Potency, µM (highest dose often 76.9 µM), without a hit: at the top dose activity change, negative = inhibition, usual class: inhibitors | hit rate 0.4% among 340,000 | AID 624288; active = falling curve of any shape with a large fitted effect; inconclusive = falling curve, mostly with a smaller effect; inactive = flat or rising curve; cell line not stated here;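 also: intracellular cAMP measured with PDE inhibitor Ro 20-1724 present during compound exposure; potency is read from the fitted curve at half-maximal effect; % is scaled to controls: 0 for no effect and ±100 for the full control effect; nearly all actives have a fitted effect of over 65% in size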
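HTRF cAMP measurement after 30 min RT detection following 30 min, 37C compound treatment alongside […] (added as 300 uM solution) in G418-selected cells seeded at 2000/well and grown 16–24 h.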
An asterisk follows results filed as active; ? = inconclusive; nt = not tested or not shown; [ ] = remark or other dose. Compounds were not picked by outcome; 1.4% or so of the library scored in one or more.

Order of results: gsp agonist, Six1-Eya2 blk, D2 PAM, D2 agonist, CtBP-E1A blk, gsp antagonist
> CC(C)CCn1cnc2c(cnn2-c2ccc(F)cc2)c1=O
→ -65%[inhibitor], -8, 9, -0.2, -2, -15%
> CC(C)=CCC/C(C)=C/C(=O)O
→ -84%[inhibitor], 8, 0, -1.4, -2, 6%
> COC(=O)c1cc2sc(Cl)cc2n1Cc1nc(-c2ccccc2)oc1C
→ -13%, 7, -6, -3.8, -5, -2%
> COc1cccc(CNC(=O)c2ccc(COc3ccccc3)cc2)c1
→ ?, 11, -14, -2.9, -5, -7%
> Cc1cc(NC(=O)c2cccnc2Cl)ccc1NC(=O)c1cc2ccccc2o1
→ -1%[15.4 µM], 1, -13, -2.4, -12, -3%
> O=C(CCCSc1nc2ccccc2[nH]1)NCc1ccccc1
→ -23%, -3, 1, -0.6, -3, 16%
> Oc1ccccc1N1CCN(c2ncccn2)CC1
→ ?, -1, 3, 1.4, 3, -8%
> NC(=O)C1CCN(C(=O)c2ccc3c(=O)n(Cc4ccco4)c(SCc4ccc([N+](=O)[O-])cc4)nc3c2)CC1
→ 2%, -6, -10, -3.4, nt, 2%
> Cc1nc(SCC(=O)N2CCOCC2)c2c(=O)n(C)c(=O)n(C)c2n1
→ 1%[15.4 µM], 1, 0, 5.0, 4, -2%
> CCOC(=O)c1nc(C)[nH]c1C(=O)OCC
→ 9%, 0, 2, -1.1, -11, 15%
> Clc1ccc(-c2nnc(-c3ccco3)o2)cc1
→ 5%, 3, -11, -0.9, -6, 9%
> CC1=C(C(=O)NC(C)c2ccc3c(c2)OCCO3)C2(CCC(C)CC2)OC1=O (stereo not drawn)
→ 6%, -3, -1, -3.8, 1, 4%
> OCCn1c(C(F)(F)F)nc2ccccc21
→ -49%[inhibitor], -3, -3, 0.3, 6, 11%
> CCn1cc(S(=O)(=O)c2ccc(C)cc2)c(=O)c2cc(OC)ccc21
→ -14%, -5, -9, -5.2, -14, -1%
> CCOC(=O)c1ccccc1NC(=O)COC(=O)CC1CCCCC1
→ -22%, 37, -4, -5.9, 38, -4%
> CCCCNC(=O)CC1SC(=NCC)N(CC)C1=O (stereo not drawn)
→ -2%, 0, 0, -4.7, 5, -2%
> CCOC(=O)c1ccc(N2CN=C3SCC(=O)N3C2)cc1
→ 14%, -1, 7, -1.1, 6, 4%
> O=C(NCc1ccccc1)C1=C[C@H](c2ccccc2)C[C@H](OCc2ccc(CO)cc2)O1
→ nt, -4, -26, 0.1, 2, -2%
> COc1cc(OC)c(C(=O)NNC(=O)c2ccc(NS(=O)(=O)c3cccs3)cc2)cc1OC
→ 3%, -2, 5, -6.3, 0, 12%
> Cc1ccc(Oc2ccccc2/C=C/C(=O)O)cc1
→ 5%, 6, -9, -1.7, -5, -12%
> Cc1cc(OCc2nc(-c3cccnc3)no2)c(C)cc1Br
→ -8%, 5, 3, -2.8, 3, 20%
> N#Cc1ccc(OCC(=O)NCCc2ccccn2)cc1
→ 3%, 9, -13, -1.1, 18, 9%
> N#CC(=C1Nc2ccccc2N1)S(=O)(=O)c1ccccc1
→ 6%[15.4 µM], -12, -7, 8.9, 17, nt
> Cc1ccc(N=Cc2c(O)n(-c3cc(Cl)ccc3N3CCOCC3)c(=O)c3ccccc23)cc1C
→ -40%[inhibitor], -14, 11, -0.3, -12, 8%
> O=C(Cc1c(F)cccc1Cl)Nc1ccc(-n2cnnn2)cc1
→ 0%[15.4 µM], 2, -12, -2.0, 0, -1%
> CC1(c2cccc(Br)c2)NC(=O)N(CC(=O)NCCC2=CCCCC2)C1=O (stereo not drawn)
→ -36%[inhibitor], -2, -13, -1.0, -3, nt
> CCOCc1nnc(NC(=O)C2CC(=O)N(CCc3ccc(F)cc3)C2)s1 (stereo not drawn)
→ 10%[15.4 µM], 3, 4, -5.8, 1, -9%
> Cc1csc(=O)n1CCC(=O)OC(C)C(=O)Nc1ccc(N2CCOCC2)cc1 (stereo not drawn)
→ 27%, 3, -1, 7.0, -2, -4%
> COc1cc(C(=O)NNC(=S)NC(=O)c2ccc3c(c2)OCO3)cc(OC)c1OC
→ 0%, -9, -7, -7.8, -6, 12%
> Clc1cccc(C2Nc3cccc4cccc(c34)N2)c1
→ -43%[inhibitor], 2, 5, 13, -2, 8%

Quoted from the listing, twelve compounds:
Order of results: gsp agonist, Six1-Eya2 blk, D2 PAM, D2 agonist, CtBP-E1A blk, gsp antagonist
> CC(C)CCn1cnc2c(cnn2-c2ccc(F)cc2)c1=O
→ -65%[inhibitor], -8, 9, -0.2, -2, -15%
> CC(C)=CCC/C(C)=C/C(=O)O
→ -84%[inhibitor], 8, 0, -1.4, -2, 6%
> COC(=O)c1cc2sc(Cl)cc2n1Cc1nc(-c2ccccc2)oc1C
→ -13%, 7, -6, -3.8, -5, -2%
> COc1cccc(CNC(=O)c2ccc(COc3ccccc3)cc2)c1
→ ?, 11, -14, -2.9, -5, -7%
> Cc1cc(NC(=O)c2cccnc2Cl)ccc1NC(=O)c1cc2ccccc2o1
→ -1%[15.4 µM], 1, -13, -2.4, -12, -3%
> O=C(CCCSc1nc2ccccc2[nH]1)NCc1ccccc1
→ -23%, -3, 1, -0.6, -3, 16%
> Oc1ccccc1N1CCN(c2ncccn2)CC1
→ ?, -1, 3, 1.4, 3, -8%
> NC(=O)C1CCN(C(=O)c2ccc3c(=O)n(Cc4ccco4)c(SCc4ccc([N+](=O)[O-])cc4)nc3c2)CC1
→ 2%, -6, -10, -3.4, nt, 2%
> Cc1nc(SCC(=O)N2CCOCC2)c2c(=O)n(C)c(=O)n(C)c2n1
→ 1%[15.4 µM], 1, 0, 5.0, 4, -2%
> CCOC(=O)c1nc(C)[nH]c1C(=O)OCC
→ 9%, 0, 2, -1.1, -11, 15%
> Clc1ccc(-c2nnc(-c3ccco3)o2)cc1
→ 5%, 3, -11, -0.9, -6, 9%
> CC1=C(C(=O)NC(C)c2ccc3c(c2)OCCO3)C2(CCC(C)CC2)OC1=O (stereo not drawn)
→ 6%, -3, -1, -3.8, 1, 4%

(cont.)
Order of results: gsp agonist, Six1-Eya2 blk, D2 PAM, D2 agonist, CtBP-E1A blk, gsp antagonist
> COc1ccccc1NC(=O)CN(Cc1ccco1)C(=O)c1cccs1
→ 18%, 1, -6, 2.1, 7, 12%
> CCC1(c2ccc(F)cc2)NC(=O)N(CC(=O)N(C)C2CCS(=O)(=O)C2)C1=O (stereo not drawn)
→ 9%[15.4 µM], -1, -2, -5.4, 4, 16%
> CCCNC(=O)c1ccc2c(=O)c(O)c(-c3ccc(Cl)c([N+](=O)[O-])c3)[nH]c2c1
→ nt, -4, -42, 2.1, -1, 3%
> Nc1nnnn1/N=C/c1ccc(F)cc1
→ 0%, -1, -1, 3.9, -2, 5%
> O=C(Nc1ccc(O)cc1)N1CCOCC1
→ -62%[inhibitor], -4, -3, -2.4, nt, 0%
> COc1ccc(OC)c(S(=O)(=O)N2Cc3ccccc3CC2C(=O)Nc2nccs2)c1 (stereo not drawn)
→ 9%, -13, -12, -1.6, -4, -8%
> Cn1c(=O)c2c(-c3ccccc3)n(-c3ccccc3O)cc2n(C)c1=O
→ -33%[inhibitor], 1, -5, -0.5, -3, 7%
> CCCC#Cc1ccc2c(c1)O[C@@H](CN(C)Cc1ccc3c(c1)OCO3)[C@H](C)CN([C@@H](C)CO)S2(=O)=O
→ ?, -9, -1, -14, -9, nt

High-throughput results as filed in PubChem BioAssay.
